NS1 function inh: qHTS Assay for Inhibitors of Influenza NS1 Protein Function; S. cerevisiae slowed by influenza A NS1, growth recovery by OD600; Potency, µM (titrated, usually from 46.1 µM), without a hit: at the top dose activity, positive = more growth; 270,000 tested, 0.4% active; AID 2326, 2010; note: actives are rising curves; nearly all actives have a fitted effect of over 50% in size
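Compounds were scored for reversing the slow growth caused by influenza A NS1 in S. cerevisiae, measured by optical density at 600 nm. Assay medium contained 2% galactose at pH 6.0; NS1-free yeast of the same strain were the positive control.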
LASV entry inh: qHTS for Inhibitors of binding or entry into cells for Lassa Virus; Potency, µM (titrated, usually from 37.9 µM), inactives show top-dose activity change, negative = inhibition, hits mostly inhibitors; 300,000 tested, 1.2% active; Lassa virus pseudotype entry inhibition, cell reporter; control for the full effect not named in the record; active means well fitted inhibition curve with a large enough effect; inconclusive means small, poorly fitted or top-dose-only effect, or effect the other way; inactive means flat fitted curve, though single readings scatter; tested in HEK293 cells; note: % is set by controls: 0 for no effect and ±100 for the full control effect; nearly all actives have a fitted effect of over 50% in size; luciferase read-out
RE007 growth inh: qHTS Assay for Inhibitors of the HIV-1 protein Vpr; S. pombe RE007 Vpr strain, BacTiter-Glo ATP luminescence, 24 h; control for the full effect not named in the record; Potency, µM (highest dose often 92.2 µM), without a hit: top-dose activity change, negative = less growth; 360,000 tested, 0.21% active; active = well fitted falling curve with a large enough effect; inconclusive = small, poorly fitted or top-dose-only effect; inactive = no such curve, though single readings can be large or run the other way;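 note: % is set by controls: 0 for no effect and ±100 for the full control effect; nearly all actives have a fitted effect of over 50% in size; the assay follows cell death caused by Vpr and the record does not say whether a fall means rescue or toxicity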
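Fission yeast strain RE007, carrying one chromosomally integrated HIV-1 vpr copy, was seeded at OD 0.01 in PMG+AL medium with 23 nL pinned compound. After 24 h at 30 °C and 99% humidity, viability was read by BacTiter-Glo luminescence.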
Cruzain noTriton: qHTS Assay for Promiscuous and Specific Inhibitors of Cruzain (without detergent); Potency, µM, for the others: max response, negative = inhibition, usual class: inhibitors; 200,000 tested, 2.3% active; purified cruzain, Z-FR-AMC fluorescence, no detergent; AID 1476, 2009; Cruzipain (Trypanosoma cruzi), P25779; active = well fitted curve in the direction sought with a large enough effect; inconclusive = small, poorly fitted or top-dose-only effect, or another doubt; inactive = no such curve, though single readings can be large; an effect the other way counts as inactive or inconclusive;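 note: plate controls were enzyme without inhibitor for no effect and buffer without enzyme for full effect; nearly all actives have a fitted effect of over 40% in size; top concentration of the series not given in the record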
Target sequence (P25779 123-467 limits assumed): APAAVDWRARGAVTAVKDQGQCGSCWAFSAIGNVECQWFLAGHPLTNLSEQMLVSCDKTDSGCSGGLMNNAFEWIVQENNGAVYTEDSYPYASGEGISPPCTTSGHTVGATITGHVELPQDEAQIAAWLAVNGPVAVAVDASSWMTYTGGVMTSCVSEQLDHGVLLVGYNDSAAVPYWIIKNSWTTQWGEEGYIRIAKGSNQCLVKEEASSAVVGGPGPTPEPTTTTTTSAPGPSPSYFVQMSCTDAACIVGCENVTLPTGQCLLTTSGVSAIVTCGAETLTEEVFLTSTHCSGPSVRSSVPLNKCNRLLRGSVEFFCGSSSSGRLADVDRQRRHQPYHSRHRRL
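Purified cruzain at 1.5 nM, pre-incubated 15 min with compound at room temperature in 100 mM sodium acetate pH 5.5, 5 mM DTT, 0.00005% Triton X-100. Reaction started with 2 uM Z-FR-AMC; AMC fluorescence increase over 60 s gives rate.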
2A StopGo: High Throughput Screening for Foot and Mouth Disease Virus Antivirals; Potency, µM (top dose mostly 57.9 µM), without a hit: at the highest dose signal change, negative = less light; 410,000 tested, 1.2% active; human cells with a luciferase reporter of 2A StopGo recoding; control for the full effect not named in the record; active = well fitted falling curve with a large enough effect; inconclusive = small, poorly fitted or top-dose-only effect; inactive = no such curve, though single readings can be large or run the other way; tested in HEK293T cells; note: % is set by controls: 0 for no effect and ±100 for the full control effect; nearly all actives have a fitted effect of over 45% in size; luciferase light after 4 h
Marburg entry inh: qHTS for inhibitors of binding or entry into cells for Marburg Virus; Marburg virus pseudotyped entry inhibition, cell reporter; control for the full effect not named in the record; about a third of the inactives were read at about 46 µM; 300,000 tested, 1.8% active; Potency, µM (doses to about 37.8 µM), for the others: at the top dose activity change, negative = inhibition, usual class: inhibitors; AID 540276, 2011; active = well fitted inhibition curve with a large enough effect; inconclusive = small, poorly fitted or top-dose-only effect, or effect the other way; inactive = flat fitted curve, though single readings scatter; tested in HEK293 cells; about a fifth of its hits are not listed in these tables; note: % is set by controls: 0 for no effect and ±100 for the full control effect; luciferase read-out
SARS PLP yeast: qHTS of Yeast-based Assay for SARS-CoV PLP. S. cerevisiae expressing SARS-CoV PLpro, growth rescue; control for the full effect not named in the record. Potency, µM (highest dose often 32.9 µM), for the others: at the highest dose activity, positive = growth rescue. 330,000 tested, 0.19% active. AID 485353, 2010; note: 0% is about no effect; nearly all actives have a fitted effect of over 55% in size; growth read by luminescence after 48 h
Cruzain Triton: qHTS Assay for Promiscuous and Specific Inhibitors of Cruzain (with detergent); purified cruzain, Z-FR-AMC fluorescence, 0.01% Triton; 200,000 tested, 0.43% active; Potency, µM, for the others: max response, negative = inhibition, usual class: inhibitors; Cruzipain (Trypanosoma cruzi), P25779; active = well fitted curve in the direction sought with a large enough effect; inconclusive = small, poorly fitted or top-dose-only effect, or another doubt; inactive = no such curve, though single readings can be large; an effect the other way counts as inactive or inconclusive;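 note: plate controls were neutral wells for no effect and buffer without enzyme for full effect; nearly all actives have a fitted effect of over 40% in size; top concentration of the series not given in the record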
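Compounds were screened in titration against cruzain (1.5 nM) with 0.01% Triton X-100 to counter colloidal aggregation. Activity was the AMC fluorescence increase over 60 s after adding 2 uM Z-FR-AMC at pH 5.5.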
* = called active by the depositor; ? = inconclusive; . = no result given; & = joins results of further samples; [ ] = dose if it differs, or a comment. Unless noted, calls come from the whole dose curve; as a rule, active means well fitted rising curve with a large enough effect; inconclusive means small, poorly fitted or top-dose-only effect; inactive means no such curve, though single readings can be large or run the other way. Potency is the fitted concentration of half-maximal effect.

Compound	LASV entry inh	NS1 function inh	Cruzain noTriton	SARS PLP yeast	Cruzain Triton	Marburg entry inh	RE007 growth inh	2A StopGo
CCn1c(SCC(=O)Nc2ccc(C)cc2)nc2sc3c(c2c1=O)CCN(C)C3	-17.6%[46.1 µM]	10.4%	.	0.6%	.	5.9%[46.1 µM]	-2.9%	-9.9%
O=C(NCCN1CCOCC1)c1ccc2c(c1)N(Cc1ccc(F)cc1)C(=O)c1ccccc1S2(=O)=O	.	-4.3%	.	25.4%	.	.	-5.6%	-6.1%
CCNS(=O)(=O)c1cccc(C(=O)c2c(C)cc3ccccn23)c1	-1.1%	7.7%	-9.9%	15.5%	-5.9%	?	0.4%	-22.3%
COc1ccc(C(=O)N/N=C/c2ccccc2OC(=O)c2ccccc2)cc1	?	-15.1%	.	-2.2%	.	12.6µM*	-16.4%	61.1%[activator]
Cn1c(=O)[nH]c(=O)c2c1nc(SCC(O)CO)n2Cc1ccccc1Cl (stereo not given)	6.4%	6.5%	13.9%	1.2%	-0.2%	-5.5%	18.5%	.
O=C(Cn1cc(C(=O)C(F)(F)F)c2ccccc21)Nc1ccccc1F	.	-32.7%	.	3.3%	.	.	0.7%	-8.2%
CCNC(=S)N(CCN(CC)CC)Cc1cc2cc3c(cc2[nH]c1=O)OCO3	.	-2.5%	.	-0.7%	.	.	-10.5%	-22.2%
CCCNC(=S)Nc1ccc(Nc2ccccc2)cc1	?	-63.7%	1.3%	19.2%	-1.8%	?	8.1%	-12.5%
Cc1ccc2oc(C(=O)Nc3ccc(S(=O)(=O)N4CCCC(C)C4)cc3)cc(=O)c2c1 (stereo not given)	6.8%[46.1 µM]	.	7.4%	.	-1.6%	2.1%[46.1 µM]	.	0.0%
Cc1ccc(Nc2nc(N)nc(CN3CCc4ccccc4C3)n2)cc1	23.1µM*	7.6%	5.3%	3.7%	0.3%	?	-1.4%	-16.7%
COc1ccc(CCNC(=O)CSC2=NS(=O)(=O)c3cc(Cl)ccc3N2)cc1OC	6.8%	.	.	6.7%	.	2.7%[46.1 µM]	9.0%	-3.5%
CC1CN(CC(=O)NCc2ccc(Cl)cc2)CC(C)O1 (stereo not given)	19.6%	0.1%	.	2.5%	.	6.7%	2.1%	-13.5%
CCn1nc(C(=O)N2CCN(Cc3ccc4c(c3)OCO4)CC2)c2ccccc2c1=O	-6.3%	-12.3%	1.7%	-3.2%	6.6%	3.7%	-2.3%	-11.0%
COc1ccc(OC)c2sc(N3CCN(C(=O)C(C)(C)C)CC3)nc12	2.9%[46.1 µM]	.	23.6%	.	-1.3%	.	.	12.2%
COc1cc(/C=C(\C#N)C(=O)Nc2ccc3c(c2)OCCO3)ccc1O	.	-49.0%	.	-5.9%	.	.	-13.5%	12.5%

Compound	LASV entry inh	NS1 function inh	Cruzain noTriton	SARS PLP yeast	Cruzain Triton	Marburg entry inh	RE007 growth inh	2A StopGo
CN(CC(=O)Nc1cccc(F)c1)C(=O)CCCc1cccs1	2.0%	-5.3%	2.8%	-4.0%	-1.0%	-4.2%	-3.0%	2.6%
CN(C(=O)c1cc(COc2ccc(F)c(F)c2)on1)C1CCOC1 (stereo not given)	.	6.1%	.	-3.5%	.	.	6.4%	16.0%
O=C(CSc1nc(O)cc(=O)n1-c1ccccc1)Nc1nc2ccccc2s1	-7.9%	15.3%	.	2.2%	.	2.9%	1.9%	2.4%
Cc1nn(C)c(C)c1/C=C(/C(=O)C(C)(C)C)n1cncn1	?	-0.8%	.	0.4%	.	?	-2.1%	-14.8%
COc1ccc(CNC(=O)CN(c2ccc(C(C)C)cc2)S(=O)(=O)c2c(C)nn(C)c2C)cc1	?	.	-7.4%	.	-2.4%	-10.7%[46.1 µM]	.	-2.0%
Cc1cnc(C(=O)OCC(=O)c2ccc(C3CCCCC3)cc2)cn1	-0.8%	.	.	-2.8%	.	14.0%	4.3%	-19.6%
O=C(NCCCO)c1c(O)c2cccc3c2n(c1=O)CCC3	.	-43.9%	.	-4.4%	.	.	-3.4%	-11.5%
CC(C)(C)C(=O)NC(=S)NNC(=O)C(c1ccccc1)c1ccccc1	.	-37.4%	.	-1.7%	.	.	-5.9%	-10.8%
COc1ccc(OC)c(NC(=O)C(CCS(C)(=O)=O)NC(C)=O)c1 (stereo not given)	-24.3%	0.6%	-8.5%	5.4%	1.1%	1.4%&5.0%	-10.1%	-6.3%
O=C(CSc1nnc(-c2ccccc2)o1)N1CCOCC1	9.9%	0.1%	2.1%	2.8%	1.3%	-5.9%	-3.0%	61.5%[activator]
COC(=O)c1ccc(NC(=O)c2cc(-c3ccccn3)nc3ccccc23)cc1	-7.7%	-3.0%	.	-1.2%	.	3.4%[46.1 µM]	-0.9%	-7.6%
Cc1ccc(-n2nc(C)c(C(=O)N3CCN(C(=O)c4ccco4)CC3)c2-n2cccc2)cc1	.	-11.0%	.	-4.1%	.	.	-2.1%	-8.0%
CCOC(=O)N1CCN(S(=O)(=O)c2ccc(F)c(C(=O)Nc3cccc(C)c3C)c2)CC1	-12.9%	-16.5%	11.6%	0.9%	0.2%	-18.6%	11.7%	-25.0%
COc1cc(Nc2nc(SCc3ccccc3F)nc3ccccc23)cc(OC)c1	?	.	24.7%	.	0.5%	.	.	-23.2%
O=C(CCCN1C(=O)C(c2ccccc2)Oc2cccnc21)NCCc1ccc(Cl)cc1 (stereo not given)	.	9.0%	.	-1.7%	.	.	-1.4%	?

Compound	LASV entry inh	NS1 function inh	Cruzain noTriton	SARS PLP yeast	Cruzain Triton	Marburg entry inh	RE007 growth inh	2A StopGo
CC[C@H](C)[C@H](NC(N)=O)C(=O)NCCc1ccc(OC)cc1	10.2%	1.0%	.	1.0%	.	-5.5%	-9.4%	?
COc1ccc(N=C2c3ccccc3-c3ccc([N+](=O)[O-])cc32)cc1	?	.	.	.	.	?	-14.2%	-14.5%
CC(=O)c1cccc(NC(=O)Cn2c(=O)c(CNc3ccc(C)cc3)cc3cc4c(cc32)OCCO4)c1	-19.5%[46.1 µM]	.	?	.	-13.9%	.	.	36.0%[activator]
O=C(c1cc2ccccc2oc1=O)N(Cc1cccs1)Cc1ccccc1Cl	?	6.2%	-22.2%	-44.3%	-5.6%	-0.8%	12.5%	29.2%
Fc1ccc(Br)cc1C1C=C(c2ccc(Br)cc2)Nc2nnnn21 (stereo not given)	10.0%[46.1 µM]	.	1.8%	.	-2.6%	.	.	-14.3%
O=C(CSc1nnc(CNC(=O)c2c(F)cccc2Cl)o1)NC1CCCCC1	1.4%[46.1 µM]	8.6%	.	24.4%	.	23.2%[46.1 µM]	4.3%	11.4%
C=CCOc1ccc(CNn2nnnc2N)cc1	-19.2%	8.5%	-2.1%	1.5%	2.0%	-13.1%	4.5%	-15.7%
NS(=O)(=O)c1ccc(NC(=S)NC2CCCCC2)cc1	.	4.1%	.	0.5%	.	.	-7.2%	5.7%
CC1CCC2(CC1)NC(=O)N(CC(=O)NCc1ccc(Cl)cc1)C2=O (stereo not given)	0.0%[46.1 µM]	.	.	-2.5%	.	-5.8%[46.1 µM]	-10.0%	10.1%
Cc1ccccc1Cn1c2ccccc2c2cnn(CC(=O)NC3CCCCCC3)c(=O)c21	15.3%[46.1 µM]	.	-1.5%	.	-1.1%	0.0%[46.1 µM]	.	-13.6%
CCOC(=O)c1c(CS(=O)(=O)c2ccccc2)n(C)c2cc(Br)c(O)cc12	.	12.1%	.	2.6%	.	.	31.6%	?
COc1ccccc1NC(=O)N1CCN(c2nnc(C)c3c(C)n(-c4ccc(Cl)cc4)nc23)CC1	14.9%[46.1 µM]	.	2.4%	.	-2.4%	.	.	?
CC1(C)Cc2c(c(-c3ccco3)[nH]c(=O)c2C#N)CS1	-10.4%	13.4%	-18.2%	6.3%	-6.6%	-0.2%&-0.2%	-26.9%	-7.7%
OCCN1CCN(CC(O)COCc2ccc3c(c2)OCO3)CC1 (stereo not given)	2.3%	2.6%	-3.1%	-14.0%	-0.7%	0.0%	-18.5%	-11.4%
O=C(c1ccccc1)C1CCN(C(=O)c2c(F)cccc2F)CC1	-0.4%[46.1 µM]	-6.6%	.	3.1%	.	-9.2%[46.1 µM]	-8.9%	-18.7%

Compound	LASV entry inh	NS1 function inh	Cruzain noTriton	SARS PLP yeast	Cruzain Triton	Marburg entry inh	RE007 growth inh	2A StopGo
COc1ccccc1NC(=S)NNC(=O)c1cc(C)n(C)n1	1.9%	-0.1%	-0.3%	?	3.9%	-3.9%	-13.0%	7.3%
CCCN1C2CCCC1CC(NC(C)=O)C2 (stereo not given)	1.5%	0.5%	0.9%	1.6%	1.8%	-16.7%	14.1%	-18.9%
CC[C@@]1(c2ccccc2OC)C(=O)N(C(=O)OC)N1C(=O)OC	.	3.2%	.	4.4%	.	.	-12.0%	?
CC1CN(S(=O)(=O)c2ccc(C(=O)Nc3sccc3C(N)=O)cc2)CC(C)O1 (stereo not given)	?	-3.1%	?	6.8%	-8.4%	?	-1.6%	?
CCN1CCCC1CNc1ccc(S(C)(=O)=O)cc1[N+](=O)[O-] (stereo not given)	25.4%[46.1 µM]	-5.7%	.	-2.9%	.	4.3%[46.1 µM]	-0.6%	-8.2%
CCCn1c(C)cc(C(=O)COc2ncnc3sccc23)c1C	?	-8.3%	-15.9%	1.9%	2.1%	-27.9%	-8.7%	42.8%[activator]
O=C(N/N=C\C=C\c1ccc2c(c1)OCO2)c1ccc(F)cc1	-22.2%	.	.	-2.1%	.	22.3%[46.1 µM]	6.1%	2.7%

Bioassay records from PubChem.
